# Source: PubChem BioAssay
# Yeast UUG start = modulators of yeast start codon fidelity, primary screen, whole organism, S. cerevisiae, single point, plate reader | S. cerevisiae UUG-firefly luciferase reporter, luminescence/redox ratio | activity score, % at 18.7 µM | 350,000 tested, 0.13% active;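 active = replicate mean at a twofold rise or more, about +100% in these data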;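 note: firefly luciferase made from a UUG start codon reports start codon fidelity; reporter light over untreated wells divided by growth signal over untreated wells; some hits fall short of that in this replicate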
# eIF4H FP inh = human eIF4H binding inhibitors, primary screen, translation initiation inhibitor project, biochemical, uHTS, fluorescence polarization; Eukaryotic translation initiation factor 4H (Homo sapiens), Q15056; eIF4H fluorescence polarization binding assay; inhibition, % at 35 µM; 290,000 tested, 0.94% active; AID 2012, 2009;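 active = 50% or more with normal probe brightness, or confirmed in later tests; inconclusive = above 50% with abnormal brightness, or retests that disagree; inactive = below 50% or failed in later tests; about a fifth of its hits are not listed in these tables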;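 note: calls also rest on retests at 20 µM and on dose response follow-up; 0% = protein and probe with vehicle and 100% = probe without protein; strong numbers were not always called active; many hits fall short of the cut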
# PABP FP inh = PABP poly(A) RNA binding inhibitors, primary screen, biochemical, fluorescence polarization, uHTS | inhibition, % at 35 µM | 290,000 tested, 1% active | AID 2014, 2009;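 active = 50% or more with normal probe brightness, or confirmed in later tests; inconclusive = above 50% with abnormal brightness, or retests that disagree; inactive = below 50% or failed in later tests; about a fifth of its hits are not listed in these tables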;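 note: calls also rest on retests at 20 µM and on dose response follow-up; controls were probe without protein and protein plus probe with vehicle; some compounds called inactive have numbers as strong as hits; many hits fall short of the cut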
# Rce1 inh = yeast Rce1p protease inhibitors, primary screen, biochemical, fluorescence, cell-free homogeneous; AID 2563, 2010; yeast membranes, quenched prenylated peptide cleavage fluorescence; calls only; 290,000 tested, 0.27% active; CAAX prenyl protease 2 (Saccharomyces cerevisiae (strain ATCC 204508 / S288c)), Q03530;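 active = fall in fluorescence gain of 50% or more versus controls, with final raw signal at or below 3038400; inconclusive = same 50% fall but final raw signal above 3038400; inactive = fall in fluorescence gain under 50%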;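 note: plate controls were neutral control wells for no effect and wells lacking membranes for full effect; tested at 10 µM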
# Target sequence (Q03530 whole entry, looked up): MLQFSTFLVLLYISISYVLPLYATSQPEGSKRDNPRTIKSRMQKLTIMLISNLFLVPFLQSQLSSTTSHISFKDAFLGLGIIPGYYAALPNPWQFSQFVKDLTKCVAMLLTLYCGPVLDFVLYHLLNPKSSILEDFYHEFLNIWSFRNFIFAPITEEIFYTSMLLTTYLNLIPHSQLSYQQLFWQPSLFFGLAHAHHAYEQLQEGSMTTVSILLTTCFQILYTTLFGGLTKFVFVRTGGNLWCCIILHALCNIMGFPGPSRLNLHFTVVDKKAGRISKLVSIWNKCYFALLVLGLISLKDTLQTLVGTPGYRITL
# CSC inhib = cancer stem cell viability inhibitors, primary screen, luminescence | cancer stem cell-like cells viability | inhibition, % at 7.5 µM | 300,000 tested, 1.1% active | AID 2717, 2010;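 active = mean at 75% or more and at least half the replicates too; inconclusive = mean and replicates disagree; tested in HMLE shEcad cells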;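 note: 0% = median of negative and 100% = median of positive control wells; the first replicate is given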
# Env fusion inh = inhibitors of HIV-1 Env-driven cell-cell fusion, primary screen, HeLa-JRFL effector, CEM21 target cells, luciferase; AID 651610, 2012; inhibition, % at 12.3 µM; 360,000 tested, 1.1% active;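 active = mean replicate inhibition score of at least 50 and every replicate individually at or above 50; inconclusive = only one of the two criteria met; inactive = mean below 50 and not all replicates reaching 50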;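 note: 0% = plate neutral controls and 100% = maraviroc near 300 nM; one replicate is shown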
# MT1-MMP act inh = blockers of MT1-MMP proenzyme processing, primary screen, HT1080 RFP-PRO-GFP cells, GFP/RFP fluorescence | GFP/RFP ratio fluorescence, overnight; percent of plate control window, DMSO zero | GFP/RFP ratio change, % at 20 µM | 360,000 tested, 0.061% active;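 active = GFP/RFP ratio change of at least 30% with cell ATP level not reduced by more than half and red fluorescence within 50% of control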; note: strong numbers were not always called active
#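 Assay system: RFP-PRO-GFP reporter HT1080 cells; read-out basis: GFP/RFP fluorescence ratio; benchmarks: DMSO wells and RFP-L50D-GFP cells; doses: 20 µM single dose, 1% DMSO; schedule: overnight cell settling, then overnight compound exposure, 37 °C, 5% CO2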
# MT1-MMP act inh RFP = further read-out of MT1-MMP act inh, marked with its call; RFP signal change, %; measured here: RFP expression control read;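 0 = vehicle wells; hits needed this value within 50% of zero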
# Active calls of the source: *; i = inactive; ? = inconclusive; · = no result given.
structure	Env fusion inh	PABP FP inh	MT1-MMP act inh RFP	CSC inhib	eIF4H FP inh	Yeast UUG start	MT1-MMP act inh	Rce1 inh
CNCC(C)COc1ccccc1OCc1ccccc1 (configuration not stated)	·	23.5	6.7	-8.2	2.4	·	3.6	i
CCN=C1SC(CC(=O)NCC)C(=O)N1CC (configuration not stated)	-36.5	3.5	7.6	-6.0	1.6	-13.2	9.9	i
Nc1nc(Nc2cccc(F)c2)nc(N2CCOCC2)c1[N+](=O)[O-]	10.6	1.8	-6.7	-7.3	-2.4	-20.0	-1.0	i
Cn1c(SCC(=O)N2CCOCC2)nnc1-c1ccco1	-10.4	3.5	7.3	·	2.0	-16.4	4.6	i
O=C(c1cccc(S(=O)(=O)Nc2ccccc2Cl)c1)N1CCC1	-20.8	·	0.4	-14.4	·	-14.1	-2.7	i
O=C(CS(=O)CC(=O)Nc1ccc(Cl)cc1)NCC1OCCc2ccccc21 (configuration not stated)	18.0	5.7	3.3	·	-7.2	0.1	-2.1	i
CCCC(=O)Nc1cccn(Cc2ccccc2Br)c1=O	·	4.4	7.8	-13.1	4.3	-5.8	5.1	i
COc1ccc(/C=N/NC(=O)c2c(Br)cnn2C)c2ccccc12	-0.4	-4.5	2.2	-8.4	-4.7	-6.7	3.3	·
CCC1Oc2ccccc2N(CC(=O)NCCCN2CCOCC2)C1=O (configuration not stated)	3.7	·	-1.6	-7.9	·	-4.8	0.6	i
COc1ccccc1C(=O)COC(=O)c1cccc(S(=O)(=O)N2CCCC2)c1	7.1	15.7	-0.6	-8.6	-12.2	-7.7	0.4	i
Cc1cccc(C)c1OCC(=O)Nc1ncn[nH]1	-23.4	0.7	3.4	3.2	-8.3	-8.9	2.1	i
CC(=O)/C(N=Nc1ccc(C(=O)O)cc1)=C(\C)O	-16.1	4.3	1.8	1.9	-0.6	-5.5	1.4	i
Cc1cc(N2CCN(c3ccc(F)cc3)CC2)nc(-c2ccccc2)n1	·	-3.9	-5.4	18.4	-5.4	6.3	0.1	i
COc1ccc(NC(=O)CS(=O)(=O)c2cn(CC(=O)N3CCOCC3)c3ccccc23)cc1OC	-8.7	-3.9	3.3	-3.6	-7.9	-3.9	0.6	i
CN(CC(=O)NC1CCCC1)S(=O)(=O)c1cnc[nH]1	1.2	-1.8	3.0	-7.3	0.5	·	0.9	i
CN(C)/C=N/NC(=O)C1Cc2c(ccc3ccccc23)O1 (configuration not stated)	5.2	13.2	0.2	2.3	10.8	-6.8	1.5	i
Cc1cccc(CC2S/C(=N/c3ccccn3)NC2=O)c1 (configuration not stated)	·	-4.6	-1.1	2.4	4.9	-21.5	2.5	i
Cc1ccc(C)c(NNC(N)=S)c1	-4.4	3.5	5.0	·	5.4	-23.2	-2.5	i
O=C(Cc1cccs1)Nc1ccc(-c2nnc(-c3ccccc3)o2)cc1	·	·	4.9	-6.3	·	-20.1	3.2	i
CCOC(=O)CC(NC(=O)c1ccccc1)c1ccc(OC)cc1 (configuration not stated)	-6.2	0.1	-0.2	7.9	-13.2	·	-4.4	i
COc1ccc(OCCN2CCC(C(=O)NC(c3ccc(Cl)cc3)c3cnccn3)CC2)cc1 (configuration not stated)	11.6	·	6.0	·	·	-16.1	2.6	·
COc1cc(OC)c(C(=O)OCC(=O)N2CC(=O)Nc3ccccc32)cc1OC	-12.6	2.3	3.0	-7.6	-3.6	-15.1	-3.0	i
CN(C)c1ccc([N+](=O)[O-])cc1C(=O)NCC(c1ccco1)N(C)C (configuration not stated)	-21.3	3.9	1.4	·	-11.6	-13.0	-0.3	i
CCOc1ccccc1NC(=O)NNS(=O)(=O)c1ccc([N+](=O)[O-])cc1	·	2.6	-3.4	-5.3	-3.3	0.0	-0.2	i
CCCc1nn(C)c2c(=O)[nH]c(-c3cc(S(=O)(=O)N(CCO)CCO)ccc3OCC)nc12	4.3	-2.5	-0.8	-2.4	-3.1	·	-3.5	i
O=C(Nc1ccccc1)C1=C[C@H](c2coc3ccccc3c2=O)C[C@H](OCc2ccc(CO)cc2)O1	24.9	-0.2	-2.5	-7.1	-2.8	-12.5	-0.4	i
CC(NC(=O)Nc1cccnc1)(C(F)(F)F)C(F)(F)F	-24.1	-4.7	-0.3	-10.6	3.7	-5.2	-2.2	i
CC(=O)OCC(=O)Nc1ccccc1OC(F)F	12.0	2.6	6.7	-0.8	0.7	·	-1.1	·
S=C(Nc1ccc2c(c1)OCCO2)Nc1ccccc1Cl	·	0.7	-2.2	5.0	-3.5	-7.5	-3.0	i
O=c1[nH]c2c(c(=O)n1Cc1ccccc1)CCC2	·	0.7	2.5	-5.6	-7.6	-3.1	6.4	i
Cn1c(CCN2CCCCC2)nc2cc(NC(=O)C3CCCCC3)ccc21	17.6	1.1	-3.6	3.9	-10.4	-7.4	-2.6	i
Cc1ccc(NC(=O)CS(=O)CC(=O)N(CC(=O)NC2CCCC2)c2ccc3c(c2)OCCO3)cc1 (configuration not stated)	11.1	-6.7	1.2	-6.1	-11.0	·	-4.0	i
CCN(CC)CCc1c(C)[nH]c(C(=O)OCc2ccccc2)c1C	·	-13.7	7.8	21.6	-8.4	0.0	5.0	i
CCOc1ccc(C(=O)NCC(=O)OCC(=O)NC2CCCC2)cc1	-10.0	-5.0	6.3	-7.7	0.7	·	8.3	i
CC(=O)c1ccc(NC(=O)CN2CCC(NC(=O)C3CCCCC3)CC2)cc1	-1.2	-3.9	-0.8	24.3	2.2	-10.3	-1.0	i
Fc1cccc(NC(=S)NNc2ccccc2)c1	11.9	-8.8	0.3	27.7	-4.2	-36.9	0.3	i
Cc1ccc(OCCOC(=O)c2c(-c3ccccc3)noc2C)cc1	27.1	17.7	-4.5	60.4	24.8	-10.8	0.6	i
CCCS(=O)(=O)N1CCCC(C(=O)NCCN(Cc2ccccc2)C(C)C)C1 (configuration not stated)	·	-2.4	3.0	-9.1	1.1	-4.4	3.1	i
CCC(Sc1nc(N)cc(N)n1)C(=O)O (configuration not stated)	-8.1	-6.9	8.5	-12.0	-1.8	-15.5	2.5	i
O=C(Cn1nc(-c2ccccc2)ccc1=O)Nc1cccc(NC(=O)c2ccccn2)c1	-4.0	-3.6	·	0.8	1.5	·	·	i
Cc1cc(C)c(S(=O)(=O)N2CCN(C(=O)CCOc3ccccc3C)CC2)c(C)c1	20.3	·	-11.3	·	·	-12.9	-4.9	·
Cc1cccc(C2=NN(c3ccc(Br)cc3)[C@@H](C(=O)N3CCOC3=O)[C@@H]2c2ccc(F)cc2)c1	11.7	2.0	-2.6	30.5	-10.6	-15.4	-1.2	i
CNC(=O)CNC(=O)Nc1ccc(Cl)c(Cl)c1	·	-8.3	5.7	-23.0	4.5	·	0.6	i
Cc1nn(-c2ccccc2)nc1C(=O)OCC(=O)N1CCC(C)CC1	·	·	0.5	-4.1	·	-6.9	1.5	·
COc1ccc(C(=O)OC2CCCCC2CN(C)C)cc1 (configuration not stated)	-0.7	5.1	0.2	-5.6	-10.6	-16.3	-6.3	i
O=C(NC(=O)N1CCCCCC1)c1ccc(Cl)cc1	-4.0	2.6	4.0	-8.5	-1.4	0.1	3.6	i
COc1ccc(NC2CCCN(C(=O)c3ccc4[nH]c(C)c(C)c4c3)C2)cc1 (configuration not stated)	5.0	-1.7	1.1	-3.3	-10.5	-5.8	0.7	i
S=c1nc[nH]c2c1[nH]c1ccccc12	·	-4.3	7.3	-1.6	-3.6	-16.9	5.6	i
COc1ccc(CCN(C(=O)C(F)(F)F)C(C(=O)NC2CCCCC2)c2ccc(C)s2)cc1 (configuration not stated)	·	-3.8	-1.7	-9.8	-7.6	-24.4	3.3	i
Cn1c(NC(=O)/C=C/c2c(F)cccc2Cl)cc(=O)n(C)c1=O	24.1	-3.9	2.3	-8.3	-9.5	·	-0.1	i
O=C(Nc1ccn(Cc2c(F)c(F)cc(F)c2F)n1)c1ccc(COc2cc(Cl)ccc2Cl)o1	36.0	3.0	-5.7	-3.3	1.0	1.3	-2.7	i
CC(=O)Nc1ccc(OC/C=C(\C)Cl)cc1	·	-6.0	-30.0	-9.6	-4.8	·	-24.0	i
Cn1cnnc1SCC(=O)Nc1c(F)cc(F)cc1Br	-13.2	-6.8	2.5	-0.7	-4.3	-17.6	0.6	·
Cc1cccc(C)c1NC(=O)COC(=O)c1nonc1N	-50.7	27.8	-1.1	-1.7	8.3	-10.9	0.4	i
COC(=O)Cc1c(C)c2ccc(O)c(CN3CCCC(C)C3)c2oc1=O (configuration not stated)	·	23.0	1.3	-0.4	-8.0	-4.7	-0.2	?
COC(=O)c1ccc(C)c(NC(=O)COC(=O)C2CC3CCCC(C2)C3=O)c1 (configuration not stated)	-3.8	·	-0.8	-0.3	·	-10.4	-3.8	i
Cc1csc(NC(=O)CSc2nc(C(C)C)nc3ccccc23)n1	-4.3	5.8	-13.8	8.5	-6.0	-9.8	-4.9	i
O=C(Nc1scc(-c2ccccc2)c1C(=O)O)c1ccc(F)cc1	-1.9	4.0	2.9	-9.4	24.2	-13.5	2.8	i
O=C(Cn1cc([N+](=O)[O-])cn1)NCc1ccccc1Cl	3.0	·	2.1	20.4	·	-4.7	4.5	i
COc1ccc(NC(=O)CS(=O)(=O)c2cccc(Cl)c2)cc1	1.6	-2.6	3.6	10.6	-2.2	-14.9	0.8	i

# The listing continues.
structure	Env fusion inh	PABP FP inh	MT1-MMP act inh RFP	CSC inhib	eIF4H FP inh	Yeast UUG start	MT1-MMP act inh	Rce1 inh
COc1cc2[nH]c3c(N4CCN(c5ccc(Cl)cc5)CC4)ncnc3c2cc1OC	·	-7.5	-5.1	-8.1	-4.4	-7.3	4.3	i
Cc1cc(NC(=O)COc2ccc3ccccc3c2)no1	-14.9	-3.5	2.4	-8.9	0.1	-17.2	1.2	·
O=C(Cc1n[nH]c(=O)c2ccccc12)NC(c1ccccc1)c1ccccc1	6.4	3.5	-0.7	-3.1	8.5	-14.8	7.0	i
Cc1cc(C)c2oc(=O)cc(CN3CCOCC3)c2c1	·	3.3	5.0	-3.2	14.0	1.1	1.8	i
CN1C(=O)CCC(CCC(=O)O)(c2ccccc2O)C1=O (configuration not stated)	-13.4	-8.5	-0.2	3.9	-5.2	20.4	-2.9	i
O=C(Nc1ccc(S(=O)(=O)N2CCCC2)cc1)c1ccc(Br)o1	-6.6	4.6	2.6	-9.2	-11.2	-5.6	1.5	·
OCC1(Cc2ccc(F)cc2)CCCN(CCCC(F)(F)F)C1 (configuration not stated)	-4.0	15.7	-0.7	41.7	9.6	9.0	4.8	i
O=C1CC(C(=O)N2CCc3ccccc32)CN1c1ccccc1 (configuration not stated)	-10.1	0.3	0.6	-20.8	-4.1	-6.3	0.7	i
O=C(NC1CCN(Cc2ccccc2)CC1)c1cn(-c2ccccc2)nc1-c1cccnc1	4.0	·	1.4	-5.9	·	-8.7	-2.4	i

# This is a subset, so the mix of outcomes need not match the whole.
